# High-throughput results: PubChem, several laboratories
# BJeLR lethal = kills HRASV12-expressing BJeLR cells; BJeLR (HRASV12) viability, CellTiter-Glo ATP luminescence, 48 h; reference of the scale not given here; inhibition, % (concentration not given with the values); actives 0.17% (n = 300,000);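 active = replicate mean above 50%; inconclusive = above 50% but judged a plate artefact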;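 note: 50 nL library stock added to about 25 µL; numbers are from one replicate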
# ugtP null kill = compounds lethal to S. aureus RN4220 ugtP deletion mutant | growth inhibition, % (concentration not given with the values) | actives 0.54% (n = 330,000) | OD600 growth, 16 h; some inactives read as strong as hits | AID 1259309;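 active = z-score under -3 and OD600 up to 0.15 on both plates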;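 note: plate controls were untreated wells for no effect and antibiotic for full effect; wells of about 80 µL received 100 nL stock; the first replicate is given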
# RN4220 kill = S. aureus RN4220 growth inhibition; OD600, 16 h; inhibition, % (test concentration not listed); actives 0.33% (n = 330,000); AID 1259311;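 active = z-score of -3 or lower and OD600 up to 0.18 on both plates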;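 note: plate controls were untreated cells for no effect and reference antibiotic for full effect; stock transfer was 100 nL into about 80 µL; one replicate is shown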
# Bead autofluor = compound fluorescence in toxin protease inhibitor counterscreen; compound autofluorescence counterscreen, microsphere flow cytometry; stronger effect = higher value; fluorescence intensity (no concentration beside the values); actives 3.1% (n = 360,000); AID 624483;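 active = at least 3 SD above the mean of all compounds, about 16000 in these data; inconclusive = too few beads counted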;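 note: 100 nL of 1 mM stock went into each well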
# PrP UTR inh = inhibition of PrP 5' UTR reporter expression; cell-based PrP 5' UTR mRNA reporter, plate reader; inhibition, % (test concentration not listed); actives 0.35% (n = 340,000); AID 488862;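 active = every replicate at 50% or more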;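 note: 0 = median of the neutral control wells; tested in H4 reporter cells; numbers are from one replicate; inactives centre near -14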
# Mtb hypoxia inh = Mtb hypoxia fluorescent reporter inhibition | M. tuberculosis hypoxia-regulated fluorescent reporter, fluorescence | fluorescence inhibition, % (no concentration beside the values) | actives 0.1% (n = 300,000);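 active = 35 to 45% if threefold the growth effect, above 45% if 1.5-fold the growth effect; inactive = the rest, general growth blockers included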;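 note: wells of about 50 µL received 100 nL stock; 0% = vehicle wells and 100% = reference inhibitor wells; whole bacteria with a GFP reporter of the hypoxia response; strong numbers were not always called active; many hits fall short of the cut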
# Mtb hypoxia inh growth = also measured in Mtb hypoxia inh; calls as there; growth inhibition, %; measured here: M. tuberculosis growth (absorbance);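 0% = vehicle and 100% = reference antibiotic; read after six days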
# An asterisk follows results filed as active; ? = inconclusive; . = no result given.
SMILES,BJeLR lethal,ugtP null kill,RN4220 kill,Bead autofluor,PrP UTR inh,Mtb hypoxia inh,Mtb hypoxia inh growth
CCN(CC)C(=O)C(Oc1ccc(S(=O)(=O)N2CCCC2)cc1[N+](=O)[O-])c1ccccc1 (configuration not stated),4,5,2.3,2944,-17,-1,-6
O=C(/C=C/c1cccc(F)c1)NCc1ccc2c(c1)OCO2,3,6,4.4,3710,-25,6,9
CCc1cc(CC)c(/C=N/NC(N)=O)c(CC)c1,-7,.,.,3283,12,.,.
COc1ccc(-c2cn[nH]c2-c2ccc(OCc3ccccc3F)cc2O)cc1OC,22,-4,3.4,?,-2,6,1
COc1ccc(NC(=O)[C@@H]2CCCN2S(=O)(=O)c2ccccc2F)cc1S(=O)(=O)N1CCCCC1,.,4,-1.5,3958,-19,3,10
COc1ccc(NC(=O)c2[nH]c(C)c(C(C)=O)c2C)cc1S(=O)(=O)Nc1ccc(Br)cc1,0,11,2.1,5969,-8,2,0
Cn1cc(CN2CCCC(C(=O)Nc3cccc(-n4cccn4)c3)C2)cn1 (configuration not stated),-2,4,0.0,5306,-21,1,8
O=C(CN1C(=O)NC(c2ccccc2)(c2ccccc2)C1=O)NC1CCS(=O)(=O)C1 (configuration not stated),.,3,2.6,3480,-6,0,1
N#Cc1cc(C(=O)c2cc(Cl)ccc2O)cn(CC2CCCO2)c1=O (configuration not stated),-1,2,0.2,2997,-4,-4,2
CCOc1ccccc1C=NNC(=O)CSc1n[nH]c(=O)[nH]c1=O,.,7,2.5,.,.,-2,-1
CC(C)C(NC(=O)c1ccc(C(C)(C)C)cc1)C(=O)N1CCC(C(N)=O)CC1 (configuration not stated),.,10,1.5,3826,-12,5,2
CN1CCC(=NNC(=O)c2cn(-c3ccccc3)nc2-c2ccccc2)CC1,6,-11,2.5,2536,-29,8,-2
CC1C(=O)Nc2ccc(S(=O)(=O)NCCc3ccc(Cl)cc3)cc2NC1=O (configuration not stated),-18,-5,-17,6347,-6,4,13
Nc1nccnc1C(=O)OCC(=O)Nc1ccc2[nH]c(=O)[nH]c2c1,-1,0,3.2,4687,-24,-3,-1
O=C(N[C@@H](Cc1c[nH]c2ccccc12)C(=O)O)OCC1c2ccccc2-c2ccccc21,.,0,3.9,5771,-15,10,9
COC(=O)c1ccc(C(=O)Nc2cc(Cl)ccc2Cl)cc1NC(=O)c1ccccc1C,5,-12,-2.5,23679*,-16,-1,0
CCOc1ccc(CN2CCN(Cc3cc4ccccc4[nH]3)CC2CCO)cc1 (configuration not stated),5,-14,2.1,2851,-15,8,8
CCCN1CCN(C(=O)c2ccc(CS(=O)c3ccc(F)cc3)o2)CC1 (configuration not stated),5,14,4.6,5545,-25,10,12
COc1ccc(C(=O)NC2CCCc3c2cnn3-c2cc(F)cc(F)c2)c(OC)c1OC (configuration not stated),6,1,4.9,5820,-18,7,5
Cc1nc2ccccc2n1CC(=O)OCC(=O)NC1CC1,-1,5,11,4652,-23,-7,0
C=CCOc1cccc(C=NNC(=O)CN2CCCCC2)c1,.,18,8.1,.,.,10,10
CC(=O)N1c2ccccc2N(Cc2ccc([N+](=O)[O-])cc2)C(=O)C1(C)C,-4,-8,2.5,2011,-12,-4,-3
NC(=S)C(c1ccccc1)c1ncc(C(F)(F)F)cc1Cl (configuration not stated),4,12,2.5,3018,3,-3,0
CCC(C)NC(=O)c1cn(CC)c2cc(N3CCN(C(=O)c4ccco4)CC3)c(F)cc2c1=O (configuration not stated),-7,20,8.9,5600,-32,5,9
Cc1cc([N+](=O)[O-])cc(C)c1OCC(=O)N/N=C/c1ccc(OC(=O)c2ccccc2)cc1,0,.,.,2674,-24,.,.
Cc1ccc(S(=O)(=O)N=c2ccc(Cl)cn2C(F)F)cc1,.,-2,2.2,.,.,5,-8
Cc1ccc(C=Nn2c(C)n[nH]c2=S)o1,.,-8,5.0,.,.,2,6
Cc1ncsc1C(=O)Nc1nc2c(s1)CCCC2,40,-5,4.4,9942,-48,9,4
COc1ccc(N2CCN(C(CNC(=O)C(C)(C)C)c3ccco3)CC2)cc1 (configuration not stated),-9,0,0.6,5529,-5,9,2
CC1=NN(C(=O)Cn2ccc([N+](=O)[O-])n2)C(O)(C(F)(F)F)C1 (configuration not stated),2,9,0.4,2454,-11,-3,6
O=C(OCCN1C(=O)c2ccccc2C1=O)c1ccco1,-13,0,0.3,4927,0,3,3
CC(C)Cc1nnc(NC(=O)CCC(=O)NC2CCCc3ccccc32)s1 (configuration not stated),6,7,1.3,2438,-15,-7,4
O=C(CN1C(=O)NC2(CCCC2)C1=O)N1CCN(c2ccccc2Cl)CC1,-12,7,1.2,5617,-24,6,11
COc1ccc(CN2CCOCC2)c(C)c1C,-2,7,2.6,10775,-21,3,5
O=C(COC(=O)CCCN1C(=O)c2cccc3cccc(c23)C1=O)Nc1cccc(Br)c1,-7,-7,-1.7,2153,-10,0,-2
CCOC(=O)C(C)On1c(-c2ccccc2)nc2ccc([N+](=O)[O-])cc21 (configuration not stated),-9,-7,-14,3473,-107,6,8
O=S(=O)(c1ccccc1)C1(S(=O)(=O)c2ccccc2)CCCC1,2,8,6.2,3538,-19,11,8
Cc1ccc(NN=C(C#N)C(=O)c2ccsc2)cc1,.,75,80,.,.,3,-1
CC1(C)Cc2ccccc2-c2n[nH]c(=S)n21,1,3,2.1,12699,-21,7,12
O=C(CCC(=O)Nc1ccc(F)cc1)N/N=C/c1ccc(O)cc1O,-7,.,.,2109,-19,.,.
CCOC(=O)c1c(C)[nH]c(C(=O)OCC(=O)Nc2ccc(Cl)cn2)c1C,.,2,4.7,2954,3,-1,-3
CCCCn1c(SCC(=O)Nc2nnc(CC)s2)nc2ccccc2c1=O,-12,1,4.8,22336*,3,-2,1
O=C(c1noc2c1CCCC2)N1CCC(CO)(Cc2ccccc2Cl)CC1,-3,10,11,3486,-14,5,-3
O=C(O)COc1cccc(/C=C2/SC(=S)N(Cc3ccccc3)C2=O)c1,-11,14,6.0,3160,-11,14,4
Nc1ncc(S(=O)(=O)c2ccc(Cl)cc2)c(N)n1,9,7,3.2,3623,-1,-3,6
COC(=O)c1scc(S(=O)(=O)C(C)C)c1N/N=C(\C#N)C(=O)c1ccc(Cl)cc1,-4,.,.,5684,-10,.,.
O=C(NCCS(=O)(=O)c1ccc(Br)cc1)c1ccccc1Cl,11,7,3.0,4548,-5,6,7
S=c1[nH]ncn1N=Cc1cccs1,.,2,2.8,.,.,6,-4

# Part of the list above, with values under each structure.
# Each structure is followed by: BJeLR lethal, ugtP null kill, RN4220 kill, Bead autofluor, PrP UTR inh, Mtb hypoxia inh, Mtb hypoxia inh growth
> O=C(c1noc2c1CCCC2)N1CCC(CO)(Cc2ccccc2Cl)CC1
    -3, 10, 11, 3486, -14, 5, -3
> COC(=O)c1scc(S(=O)(=O)C(C)C)c1N/N=C(\C#N)C(=O)c1ccc(Cl)cc1
    -4, ., ., 5684, -10, ., .

# Next records follow.
SMILES,BJeLR lethal,ugtP null kill,RN4220 kill,Bead autofluor,PrP UTR inh,Mtb hypoxia inh,Mtb hypoxia inh growth
CCOC(=O)C1CCCN(C(=O)C2CCC(CNS(=O)(=O)c3ccc(NC(C)=O)cc3)CC2)C1 (configuration not stated),4,9,8.6,2499,-5,-8,6
CCOc1ccc(COC(=O)C2CC(=O)N(CCc3ccccc3)C2)cc1OC (configuration not stated),.,1,1.4,8432,-22,12,2
CN(C)S(=O)(=O)c1cccc(CSc2cccc[n+]2[O-])c1,5,10,2.3,4001,-11,6,5
CCOC(=O)CC1C(=O)NCCN1c1nc2c(C)cccn2c(=O)c1/C=C1\SC(=S)N(C(C)CC)C1=O (configuration not stated),9,-5,-4.4,.,.,16,-9
Nc1nonc1-n1nnc(C(=O)NN=Cc2ccccc2Cl)c1-c1ccccc1,.,-4,11,.,.,7,9
S=C(Nc1ccccc1Cl)N1CCC(c2ccccc2)C1 (configuration not stated),-7,3,1.5,?,-36,4,-2
N#CC1C(C#N)N2CCCN2C1c1ccc(Br)cc1 (configuration not stated),3,1,2.5,3359,-8,21,13
Cc1cc(C)cc(NC(=O)CSc2nc3c(c(=O)[nH]2)CN(Cc2ccc(F)cc2)CC3)c1,1,4,2.0,2740,-7,15,1
Nc1nc(SCc2ccc(Cl)cc2Cl)nc2nc3c(cc12)CCCC3,-9,18,-4.7,2440,-10,7,7
C=CCn1c(=O)c(C(=O)NC2CC2)c(O)c2cc(OC)c(OC)cc21,6,-1,2.2,4035,7,3,19
O=C1C=C(NCc2ccc(Cl)c(Cl)c2)C2(CCCCC2)O1,2,1,-1.1,5785,-18,.,.
CCOC(=O)C1CCN(CC(O)COCc2ccc(Cl)cc2)CC1 (configuration not stated),2,14,4.5,4063,-5,16,-4
Cc1cc(C)c2c(=O)[nH]c(SCC(=O)Nc3ccc(Br)cc3)nc2n1,-3,-11,4.4,4161,-18,-7,-6
CC(C)Cn1c(-c2cccs2)nc2nc3ccccc3nc21,-9,-12,-7.2,3216,-7,23,8
O=C(Cn1ncc2ccsc2c1=O)N1CCC2(CC1)OCCO2,-5,8,5.3,7945,-4,-6,-10
COC(Cc1nnc(SC)n1-c1ccccc1)OC,-4,5,1.2,15662,0,11,5
O=C(CSc1ncc(-c2ccc(F)cc2)[nH]1)N1CCCCC1,14,1,4.4,10925,-28,6,8
Cc1ccc(CC(=O)Nc2ccc(S(=O)(=O)Nc3nccc(C)n3)cc2)cc1,7,3,2.0,3684,13,-3,2
CCN(CC)CCCN(Cc1cc2cc(OC)ccc2[nH]c1=O)C(=O)Nc1ccccc1,-2,4,3.9,.,.,16,2
O=C(Cn1cc(C(F)(F)F)ccc1=O)Nc1cccc(S(=O)(=O)N2CCOCC2)c1,-10,.,.,2049,14,.,.
COc1ccc(C=NNc2nc(-c3cccnc3)nc3ccccc23)cc1OC,.,-4,2.7,.,.,4,2
COc1ccc(CC(=O)NCCS(=O)(=O)N2CCN(c3ccccc3)CC2)cc1,1,.,.,6281,-9,.,.
CC(=O)OC1C2CCC1C(N1CCCC1)CC2 (configuration not stated),10,7,4.2,3694,12,.,.
COc1ccc(NC(=O)C(CC(=O)O)Cc2ccc(C)cc2)cc1 (configuration not stated),4,-74,9.2,4218,-13,3,-8

# 2 entries picked at random from those above, as already listed:
SMILES,BJeLR lethal,ugtP null kill,RN4220 kill,Bead autofluor,PrP UTR inh,Mtb hypoxia inh,Mtb hypoxia inh growth
CCN(CC)CCCN(Cc1cc2cc(OC)ccc2[nH]c1=O)C(=O)Nc1ccccc1,-2,4,3.9,.,.,16,2
COc1ccc(NC(=O)C(CC(=O)O)Cc2ccc(C)cc2)cc1 (configuration not stated),4,-74,9.2,4218,-13,3,-8

# Next entries follow:
SMILES,BJeLR lethal,ugtP null kill,RN4220 kill,Bead autofluor,PrP UTR inh,Mtb hypoxia inh,Mtb hypoxia inh growth
Cc1nc(C(Cl)(Cl)Cl)nc2[nH]ccc(=O)c12,-7,-2,1.8,4897,-7,0,-10
O=C(NN=Cc1ccc(F)cc1)c1ccncc1,.,9,3.9,.,.,24,23
COc1ccc(/C=N/NC(=O)c2ccc(N(C)S(=O)(=O)c3ccccc3)cc2)cc1,4,.,.,2449,-2,.,.
COc1ccc(NC(=S)N2CCC(N(C)CCN3CCOCC3)CC2)cc1Cl,0,6,3.2,2062,-16,3,3
Cc1cc2c(SCc3ccccc3Cl)nc(N)nc2nc1C,.,3,-0.1,7702,0,22,9
COc1ccccc1N1C(=O)S/C(=C\c2cccs2)C1=O,-11,-11,-1.5,4607,-5,5,13
Nc1cc(=O)[nH]c(SCC(=O)Nc2ccc(S(=O)(=O)N3CCOCC3)cc2)n1,0,0,5.1,10851,-33,3,5
Cc1ccc(S(=O)(=O)N2CCCOC2CNC(=O)C(=O)NCc2ccc3c(c2)OCO3)cc1 (configuration not stated),-2,6,2.9,5017,-6,7,6
Cc1cc(/C=N/NC(=O)c2cccnc2)c(C)n1CC(C)C,4,.,.,4242,-45,.,.
Cc1nnc(SCC(=O)NCC2COc3ccccc3O2)s1 (configuration not stated),.,2,3.5,3976,-17,14,2
Cc1ccc(S(=O)(=O)N2CCN(C(=O)CCC(=O)Nc3ccc(Br)c(C)c3)CC2)cc1,.,-14,0.9,4066,-15,2,5
Cn1c(=O)n(C)c2cc(C=NNC(=O)c3cc4cc(Br)ccc4o3)ccc21,.,-17,6.7,.,.,7,2
